HTR1E antagonist: 5-HT1E receptor antagonists, primary screen, cell-based, HTS; CHO 5-HT1E Ga15 NFAT-bla reporter, FRET, antagonist; inhibition, % at 6 µM; actives 0.99% (n = 65,000);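 active = inhibition above a set limit, the mean inhibition across every tested compound plus 3 SD, cut at about 29% in these data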;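 also: signal is the 460 over 535 nm emission ratio of beta-lactamase substrate; 0% = agonist plus DMSO wells and 100% = wells without agonist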
Target sequence (P28566 whole entry, looked up): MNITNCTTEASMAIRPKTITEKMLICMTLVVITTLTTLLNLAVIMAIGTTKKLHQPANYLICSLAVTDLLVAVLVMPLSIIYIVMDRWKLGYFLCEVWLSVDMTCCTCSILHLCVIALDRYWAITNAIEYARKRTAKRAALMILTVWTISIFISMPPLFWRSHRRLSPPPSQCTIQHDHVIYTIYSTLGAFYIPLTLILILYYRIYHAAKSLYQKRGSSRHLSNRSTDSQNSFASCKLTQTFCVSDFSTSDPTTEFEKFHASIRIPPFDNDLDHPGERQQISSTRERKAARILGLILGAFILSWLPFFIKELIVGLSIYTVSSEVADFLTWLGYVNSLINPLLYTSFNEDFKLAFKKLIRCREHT
NADH enzymes: inhibitors of PK/LDH coupling enzymes, profiling panel, artefact control, biochemical, MLSMR library; coupled PK/LDH NADH assays, four targets; IC50, µM (top dose mostly 10 µM), without a hit: at the top dose inhibition; actives 0.02% (n = 65,000);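 active = single-dose screening hits from any of four coupled enzyme assays that gave an IC50 when retested across doses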;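 also: the DPM-DC format reads NADH fluorescence rather than 340 nm absorbance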
5HT1E ag: 5-HT1E receptor agonists, primary screen, cell-based, HTS | CHO 5-HT1E Ga15 NFAT-bla reporter, FRET; 0% DMSO wells, 100% control agonist wells | actives 0.69% (n = 65,000) | activation, % at 6 µM | 5-hydroxytryptamine receptor 1E (Homo sapiens), P28566 | AID 574, 2007;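 active = activation above a set limit, the screen-wide mean activation plus 3 SD, cut at about 8.5% in these data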;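 also: 100% = positive control agonist at 1 µM giving full maximal response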
tolC growth inh: growth inhibitors of E. coli tolC mutant, primary screen, strain BW25113 ΔtolC::kan, 384-well | OD615 | growth inhibition, % at 10 µM (by protocol) | actives 2.2% (n = 65,000) | AID 573, 2007;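 active = growth inhibition at or above a cutoff equal to the mean over every tested compound plus 3 SD, cut at about 60% in these data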;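 also: growth measured after 20 h incubation at 37 °C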
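Signal: optical density read at 615 nm; Assay system: E. coli ΔtolC::kan strain BW25113; Times: 20 h incubation with compound, 37 °C; Dosing: 10 µM final, single dose.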
5HT1a antag: human 5-HT1a receptor antagonists, primary screen, cell-based, CHO, Ga15 NFAT-bla reporter; AID 612, 2007; inhibition, % at 10 µM; CHO 5-HT1a Ga15 NFAT-bla reporter, antagonist mode; actives 0.68% (n = 62,000);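 active = inhibition above the mean of all tested compounds plus 3 SD, cut at about 43% in these data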;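 also: receptor stimulated by 5-CT agonist at 100 nM near EC80; beta-lactamase reporter measured by ratiometric fluorescence of a cleavable substrate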
An asterisk follows results filed as active; . = not tested or not shown. This is a subset; the hit share may differ from the screen's.

1. CCOC(=O)C1=C(C)NC(C)=C(C(=O)OC)C1c1cccc(Cl)c1Cl (centres undefined)
2. N#Cc1ccccc1CSc1nc(O)cc(=O)[nH]1
3. COCCc1ccc(OCC(O)CNC(C)C)cc1 (centres undefined)
4. CCN(CC)CCOC(=O)C1(C2CCCCC2)CCCCC1
5. CC1(C)S[C@@H]2[C@H](NC(=O)Cc3ccccc3)C(=O)N2[C@H]1C(=O)O
6. CC1(C)S[C@@H]2[C@H](NC(=O)[C@H](C(=O)O)c3ccsc3)C(=O)N2[C@H]1C(=O)O
7. CC(C)NCC(O)COc1cccc2[nH]ccc12 (centres undefined)
8. Clc1ccc2c(c1)C(N1CCNCC1)=Nc1ccccc1O2

Screen / compound no. | 1 | 2 | 3 | 4 | 5 | 6 | 7 | 8
HTR1E antagonist | 21 | 1 | -8 | -13 | -5 | 0 | -7 | 14
NADH enzymes | 3% | 4% | 3% | 4% | 3% | 2% | 2% | 3%
5HT1E ag | 0.5 | 0.7 | 0.3 | 0.1 | -0.3 | 0.3 | 8.7* | 1.0
tolC growth inh | 1 | -10 | 2 | 4 | 12 | 13 | 9 | 5
5HT1a antag | . | -5 | . | . | . | . | . | .

A draw from above in order of formula weight, rising:
7. CC(C)NCC(O)COc1cccc2[nH]ccc12 (centres undefined)
2. N#Cc1ccccc1CSc1nc(O)cc(=O)[nH]1
3. COCCc1ccc(OCC(O)CNC(C)C)cc1 (centres undefined)
8. Clc1ccc2c(c1)C(N1CCNCC1)=Nc1ccccc1O2
5. CC1(C)S[C@@H]2[C@H](NC(=O)Cc3ccccc3)C(=O)N2[C@H]1C(=O)O
1. CCOC(=O)C1=C(C)NC(C)=C(C(=O)OC)C1c1cccc(Cl)c1Cl (centres undefined)

Screen / compound no. | 7 | 2 | 3 | 8 | 5 | 1
HTR1E antagonist | -7 | 1 | -8 | 14 | -5 | 21
NADH enzymes | 2% | 4% | 3% | 3% | 3% | 3%
5HT1E ag | 8.7* | 0.7 | 0.3 | 1.0 | -0.3 | 0.5
tolC growth inh | 9 | -10 | 2 | 5 | 12 | 1
5HT1a antag | . | -5 | . | . | . | .

Later entries.
9. CC(=O)OCC(=O)[C@@]12OC(C)(C)O[C@@H]1C[C@H]1[C@@H]3C[C@H](F)C4=CC(=O)C=C[C@]4(C)[C@@]3(F)[C@@H](O)C[C@@]12C
10. COc1cccc2c1C(=O)c1c(O)c3c(c(O)c1C2=O)C[C@@](O)(C(C)=O)C[C@@H]3O[C@H]1C[C@H](N)[C@H](O)[C@H](C)O1
11. CN1CCN2c3ccccc3Cc3ccccc3C2C1 (centres undefined)
12. OC(CCN1CCCC1)(c1ccccc1)C1CCCCC1 (centres undefined)
13. Cc1sc2ncnc(SCC(=O)N3CCN(C(=O)c4ccco4)CC3)c2c1C
14. CC(=O)Nc1nnc(S(N)(=O)=O)s1
15. CCc1cccc2c3c([nH]c12)C(CC)(CC(=O)O)OCC3 (centres undefined)
16. CC(=O)OCC(=O)[C@@]1(O)CC[C@H]2[C@@H]3CCC4=CC(=O)CC[C@]4(C)[C@H]3C(=O)C[C@@]21C

Screen / compound no. | 9 | 10 | 11 | 12 | 13 | 14 | 15 | 16
HTR1E antagonist | 5 | 57* | 5 | -6 | 3 | -6 | -1 | 4
NADH enzymes | 2% | 2% | 3% | 2% | 9% | 2% | 2% | 3%
5HT1E ag | 0.4 | -1.2 | 86* | 0.1 | 1.6 | 0.3 | -0.2 | -0.2
tolC growth inh | 13 | 3 | 11 | 8 | 3 | 7 | 12 | 16
5HT1a antag | . | . | . | . | -10 | . | . | .

Screening results: PubChem, several laboratories
